Screening data (PubChem BioAssay)
BJeLR viability = BJeLR cell viability loss. 300,000 tested, 0.17% active. inhibition, % (test concentration not listed). BJeLR (HRASV12) viability, CellTiter-Glo ATP luminescence, 48 h; reference of the scale not given here;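 active = replicate mean above 50%; inconclusive = above 50% but judged a plate artefact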;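 note: 50 nL library stock added to about 25 µL; numbers are from one replicate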
Sa RN4220 lethal = S. aureus RN4220 growth inhibition; OD600, 16 h; inhibition, % (concentration not given with the values); 330,000 tested, 0.33% active; AID 1259311;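 active = z-score of -3 or lower and OD600 up to 0.18 on both plates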;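 note: plate controls were untreated cells for no effect and reference antibiotic for full effect; stock transfer was 100 nL into about 80 µL; one replicate is shown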
Mtb hypoxia rep = reduces hypoxia-regulated biosensor signal in M. tuberculosis. M. tuberculosis hypoxia-regulated fluorescent reporter, fluorescence. fluorescence inhibition, % (concentration not given with the values). 300,000 tested, 0.1% active. AID 1159583;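 active = 35 to 45% if threefold the growth effect, above 45% if 1.5-fold the growth effect; inactive = the rest, general growth blockers included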;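 note: wells of about 50 µL received 100 nL stock; 0% = vehicle wells and 100% = reference inhibitor wells; whole bacteria with a GFP reporter of the hypoxia response; strong numbers were not always called active; many hits fall short of the cut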
PrP 5UTR inh = inhibition of PrP 5' UTR reporter expression | AID 488862 | cell-based PrP 5' UTR mRNA reporter, plate reader | 340,000 tested, 0.35% active | inhibition, % (concentration not given with the values);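 active = every replicate at 50% or more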;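 note: 0 = median of the neutral control wells; tested in H4 reporter cells; numbers are from one replicate; inactives centre near -14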
Sa ugtP lethal = kills S. aureus RN4220 lacking UgtP | S. aureus RN4220 ugtP deletion, OD600 growth, 16 h; some inactives read as strong as hits | growth inhibition, % (concentration not given with the values) | 330,000 tested, 0.54% active;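 active = z-score under -3 and OD600 up to 0.15 on both plates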;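 note: plate controls were untreated wells for no effect and antibiotic for full effect; wells of about 80 µL received 100 nL stock; the first replicate is given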
Bead autofluor = compound fluorescence in toxin protease inhibitor counterscreen; compound autofluorescence counterscreen, microsphere flow cytometry; active compounds read high; fluorescence intensity (no concentration beside the values); 360,000 tested, 3.1% active; AID 624483;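 active = at least 3 SD above the mean of all compounds, about 16000 in these data; inconclusive = too few beads counted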;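 note: 100 nL of 1 mM stock went into each well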
Mtb hypoxia rep growth = second read-out of Mtb hypoxia rep, no call of its own (marks repeat the call); growth inhibition, %; measured here: M. tuberculosis growth (absorbance);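 0% = vehicle and 100% = reference antibiotic; read after six days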
* hit, by the source's call; ? = inconclusive; . = no result given.

entry	SMILES	BJeLR viability	Sa RN4220 lethal	Mtb hypoxia rep	Mtb hypoxia rep growth	PrP 5UTR inh	Sa ugtP lethal	Bead autofluor
1	CCOc1ccccc1N(CC(=O)N1CCCCCC1)S(=O)(=O)c1ccc(C)cc1	-11	7.0	17	-7	-1	12	4641
2	O=C(Nc1ccc(Cl)cn1)c1ccc2ccccc2n1	0	-4.6	.	.	-96	-11	3583
3	COc1cc(/C=C/C(=O)OCC(=O)N2CCCc3ccccc32)ccc1O	.	3.3	5	7	-10	6	2898
4	Cc1ccc(C(=O)NCC(=O)NCCCc2ccccc2)cc1	-2	-0.5	-3	5	-15	8	3713
5	CSCC[C@H](NC(=O)[C@@H]1Cc2ccccc2CN1)C(=O)Nc1ccc2c(c1)OCO2	2	-8.1	-1	-3	-3	-7	4561
6	CCc1cc(=O)oc2cc(OC(C)=O)cc(OC(C)=O)c12	-3	-2.4	7	7	-4	4	2692
7	O=C(CN1c2cccc3cccc(c23)S1(=O)=O)NCc1ccc2c(c1)OCO2	-11	4.3	0	-4	-4	-4	8378
8	O=C1CC(N2CCN(c3ccccc3)CC2)C(=O)N1c1ccc2c(c1)OCCO2 (stereo not given)	.	1.3	.	.	-24	-3	3113

Other structures
entry	SMILES	BJeLR viability	Sa RN4220 lethal	Mtb hypoxia rep	Mtb hypoxia rep growth	PrP 5UTR inh	Sa ugtP lethal	Bead autofluor
9	Cc1ccc2c(c1)N(C(C)C(=O)NCCc1ccccc1)C(=O)CO2 (stereo not given)	-4	16	9	10	-33	-7	20536*
10	CCN(CC(=O)Nc1ccccc1OC)C(=O)c1ccc2[nH]c3c(c2c1)CC(C)CC3 (stereo not given)	.	-5.8	1	-2	-94	-17	3033
11	O=C(c1cccc(C(F)(F)F)c1)N1CCc2c([nH]c3ccccc23)C1C(F)(F)F (stereo not given)	-3	6.9	1	-1	-6	-9	3540
12	Cc1cc(C)nc(N2CCCC(C(=O)NCc3cccs3)C2)n1 (stereo not given)	10	6.1	7	3	-39	4	21442*
13	Cc1ccc(S(=O)(=O)Nc2n[nH]nc2C(=O)NC2CCCCC2)cc1	-3	0.0	1	-1	-25	12	4129
14	O=c1c2ccccc2oc2ccc(NCCCn3ccnc3)cc12	1	2.2	20	17	-14	1	3780
15	CCOC(=O)c1c(S(=O)(=O)NCC(=O)Nc2ccccc2F)c(C)n(C)c1C	0	2.2	0	6	-10	6	5470
16	CCN(CC)c1ccc(/C=N/NC(=O)c2ccoc2C)c(O)c1	48	.	.	.	-33	.	3422

Further records:
entry	SMILES	BJeLR viability	Sa RN4220 lethal	Mtb hypoxia rep	Mtb hypoxia rep growth	PrP 5UTR inh	Sa ugtP lethal	Bead autofluor
17	Cc1ccc(S(=O)(=O)N2CCC(C(=O)Nc3ccc(C(C)C)cc3)CC2)cc1	.	-5.3	0	11	11	-22	?
18	Cc1ccc(-c2ccc(=O)[nH]n2)cc1	-19	5.3	12	3	-16	0	21252*
19	Nc1ccc(O)c2c1C(=O)c1ccccc1C2=O	16	.	.	.	-12	.	5198
20	O=C(CSc1nc(-c2ccccc2)cc(=O)[nH]1)Nc1ccccc1	-9	4.7	-1	-6	-33	3	3972
21	CC1(C)CC(=O)C(C=NCC(N)=O)=C(O)C1	-3	-3.7	-15	-7	-23	-5	10444
22	COc1ccc(/C(N)=N/OC(=O)CCc2ccccc2)cc1	-10	7.7	15	7	-36	14	4246
23	CC(=O)c1ccc(NC(=S)N2CCN(c3ccccn3)CC2)cc1	1	3.2	6	0	-6	1	4349
24	O=C(NC1CCCc2ccccc21)C12CC3CC(CC(O)(C3)C1)C2 (stereo not given)	0	1.9	8	-4	-40	10	3267

Next part
entry	SMILES	BJeLR viability	Sa RN4220 lethal	Mtb hypoxia rep	Mtb hypoxia rep growth	PrP 5UTR inh	Sa ugtP lethal	Bead autofluor
25	COc1ccc(/C=N/NC(=O)CCc2ccccc2)cc1O	-4	.	.	.	7	.	11502
26	O=C(COC(=O)COc1ccc(Cl)cc1Br)NC1CCCCCC1	.	2.8	10	4	-8	2	2884
27	O=S(=O)(Cc1ccc(Cl)cc1)C1CCCCC1O (stereo not given)	-5	2.2	10	11	-32	10	5831
28	Cc1ccsc1C=Nn1c(COc2ccccc2)n[nH]c1=S	.	11	-8	9	.	-1	.
29	CN(C)c1ccc(C=NNC(=O)C2CC2c2ccccc2)cc1 (stereo not given)	.	-3.0	3	5	.	-10	.
30	O=C(COC(=O)CC1CC2CCC1C2)Nc1c(F)cccc1F (stereo not given)	-3	2.8	7	6	-19	8	4856
31	CC(=O)Nc1ccc(S(=O)(=O)N(C)CC(=O)Nc2ccccc2N2CCCC2)cc1	5	5.7	-1	6	-13	3	?
32	O=C1NC(=S)S/C1=C\c1coc2ccc(O)cc2c1=O	-6	8.1	4	4	-7	3	4479

The list goes on:
entry	SMILES	BJeLR viability	Sa RN4220 lethal	Mtb hypoxia rep	Mtb hypoxia rep growth	PrP 5UTR inh	Sa ugtP lethal	Bead autofluor
33	COc1ccc(-c2nnc(COc3ccc(Br)cc3C)o2)cc1	0	8.0	7	-5	.	1	5777
34	CCC(CO)Oc1cc(NC(=O)c2cccc(F)c2)c2ncn(C(C)C)c2c1 (stereo not given)	.	4.9	8	6	-13	-40	2911
35	CCN(CCCNC(=O)COc1cc(=O)n(CC)c2ccccc12)c1ccccc1	0	4.1	-4	7	-20	-3	19587*
36	CC(C)(C)NC(=O)CN1CCC(O)(c2ccccc2)CC1	0	3.6	17	6	-29	9	10524
37	CCOc1cc(C=NNC(=O)CN2CCCCC2)ccc1O	.	3.6	7	-8	.	11	.
38	CCc1nnc(NC(=O)CSc2nnc(C)n2-c2ccc(C)cc2)s1	-3	12	-7	5	9	6	2627
39	COc1ccc2cc(C=NO)c(Cl)nc2c1	.	12	9	8	.	6	.
40	COc1ccc(C(=O)c2cc(OC)c(OC)c(OC)c2)cc1OC	.	8.6	12	9	-37	0	3537

Continuation:
entry	SMILES	BJeLR viability	Sa RN4220 lethal	Mtb hypoxia rep	Mtb hypoxia rep growth	PrP 5UTR inh	Sa ugtP lethal	Bead autofluor
41	COc1ccc(N(CC(=O)Nc2cccc(C)c2C)S(=O)(=O)c2c(C)n[nH]c2C)cc1	-6	3.7	0	6	-13	-1	20057*
42	CC1=C(C(=O)OC2CCCCC2)C(c2ccccc2Br)NC(=O)N1 (stereo not given)	5	4.1	9	14	3	-13	3383
43	O=C(NNC(=O)c1sccc1-n1cccc1)Nc1ccc(F)cc1	2	-0.3	12	12	-21	9	4006
44	O=C(COC(=O)/C=C/c1ccccc1Cl)NCC1CCCO1 (stereo not given)	.	0.8	5	5	-14	-1	3952
45	CCCn1c(N)c(Sc2ccc([N+](=O)[O-])cc2)c(=O)n(CCC)c1=O	2	1.2	10	6	9	7	2509
46	O=C(c1ccccc1Cl)N1CCc2ccccc2C1	-12	0.4	8	6	-30	1	17580*
47	COc1ccc(-c2c(C)oc3c(CN4CCCCC4C)c(O)ccc3c2=O)cc1OC (stereo not given)	5	1.6	7	6	-5	3	5753
48	Cc1ccc(NC(=O)Cn2nc(C)c3ccccc3c2=O)cc1F	-8	0.9	6	4	-60	6	8475

Next part:
entry	SMILES	BJeLR viability	Sa RN4220 lethal	Mtb hypoxia rep	Mtb hypoxia rep growth	PrP 5UTR inh	Sa ugtP lethal	Bead autofluor
49	CCOC(=O)c1oc2nc(C)c3c(c2c1N)CC(C)(C)OC3	3	4.5	6	6	-24	6	3545
50	CCOC(=O)c1cnn(-c2cc(C)cc(C)c2)c1N	-3	7.1	-5	2	-38	6	4382
51	CC(CNC(=O)C(=O)NC(C)CCc1ccccc1)Cc1ccccc1 (stereo not given)	4	5.5	15	8	-28	5	8171
52	CNc1cnn(-c2ccc(C)cc2)c(=O)c1Cl	5	1.8	.	.	-91	4	5023
53	COc1ccc2c(c1)C(=O)CC(c1ccccc1)O2 (stereo not given)	.	2.1	19	10	-17	7	3820
54	Cc1ccc(CN2CCN(Cc3ccc4cc(F)ccc4n3)CC2CCO)o1 (stereo not given)	8	0.4	1	15	-27	1	4114
55	Cc1cccc(NC(=O)COc2ccc3c(c2)CCC3)n1	.	8.5	4	-1	-68	16	4094
56	COc1ccc(C(=O)C2CCCN(Cc3cccn3-c3ccccn3)C2)c(C)c1 (stereo not given)	6	0.1	0	11	-19	5	4919

Remaining list, next part:
entry	SMILES	BJeLR viability	Sa RN4220 lethal	Mtb hypoxia rep	Mtb hypoxia rep growth	PrP 5UTR inh	Sa ugtP lethal	Bead autofluor
57	Cc1cccc(N(CC(=O)NC(C)(C)C)C(=O)CCC(=O)Nc2ccccn2)c1	-2	2.5	7	1	-41	3	3459
58	CC(=O)Nc1ccc(S(=O)(=O)NCCC(=O)OCc2ccccc2F)cc1	.	-0.6	-1	8	-11	0	9366
59	NC(=O)NCCCC(=O)O	.	-0.1	.	.	0	-11	5139
60	CCCn1c(=O)n(C)c(=O)c2c(SCc3cc(C(C)=O)ccc3OCC)nc(C3CC3)nc21	-8	-0.9	-4	10	.	-29	.
61	COc1ccc(OC)c(S(=O)(=O)N2CCC(C(=O)N3CCOCC3)CC2)c1	3	2.7	11	1	-29	10	4189
62	O=C(COc1ccc(Cl)cc1)N1CCN(S(=O)(=O)c2ccccc2)CC1	8	3.2	-1	-3	-19	10	10137
63	Cc1cc(NC(=O)CCSc2nc(-c3ccco3)cc(C(F)(F)F)n2)n(-c2ccccc2)n1	-6	-14	.	.	-9	-5	2897
64	COc1ccc(C(=O)Nc2cc(OC)cc3cccnc23)cc1	-8	2.3	17	12	-32	11	3884

(list continues)
entry	SMILES	BJeLR viability	Sa RN4220 lethal	Mtb hypoxia rep	Mtb hypoxia rep growth	PrP 5UTR inh	Sa ugtP lethal	Bead autofluor
65	O=C1c2ccccc2NC(c2cccc(F)c2)N1Cc1ccccc1 (stereo not given)	-12	-0.7	-14	-3	4	6	3440
66	COc1ccccc1S(=O)(=O)n1cc(Cc2ccccc2)c(N)n1	-1	9.2	11	12	.	11	7071
67	COc1ccc(CNC(=O)/C=C/C(=O)O)cc1	9	4.6	9	2	-23	10	4333
68	Cc1cccc(NS(=O)(=O)c2cc(C(=O)N3CCOCC3)ccc2Cl)c1	2	7.6	5	2	-9	3	3417
69	CCC(CO)Oc1cc(NC(=O)c2ccc(C)cc2)c2ncn(C(C)C)c2c1 (stereo not given)	.	5.1	13	7	-4	12	4082

In the list so far, these contain a Cl atom:
entry	SMILES	BJeLR viability	Sa RN4220 lethal	Mtb hypoxia rep	Mtb hypoxia rep growth	PrP 5UTR inh	Sa ugtP lethal	Bead autofluor
2	O=C(Nc1ccc(Cl)cn1)c1ccc2ccccc2n1	0	-4.6	.	.	-96	-11	3583
26	O=C(COC(=O)COc1ccc(Cl)cc1Br)NC1CCCCCC1	.	2.8	10	4	-8	2	2884
27	O=S(=O)(Cc1ccc(Cl)cc1)C1CCCCC1O (stereo not given)	-5	2.2	10	11	-32	10	5831
39	COc1ccc2cc(C=NO)c(Cl)nc2c1	.	12	9	8	.	6	.
44	O=C(COC(=O)/C=C/c1ccccc1Cl)NCC1CCCO1 (stereo not given)	.	0.8	5	5	-14	-1	3952
46	O=C(c1ccccc1Cl)N1CCc2ccccc2C1	-12	0.4	8	6	-30	1	17580*
52	CNc1cnn(-c2ccc(C)cc2)c(=O)c1Cl	5	1.8	.	.	-91	4	5023
62	O=C(COc1ccc(Cl)cc1)N1CCN(S(=O)(=O)c2ccccc2)CC1	8	3.2	-1	-3	-19	10	10137
68	Cc1cccc(NS(=O)(=O)c2cc(C(=O)N3CCOCC3)ccc2Cl)c1	2	7.6	5	2	-9	3	3417
